# Screening data as filed in PubChem BioAssay.
# BJeLR lethal: MLPCN primary cell-based screen for lethality selective to Ras in HRASV12 cells; BJeLR (HRASV12) viability, CellTiter-Glo ATP luminescence, 48 h; reference of the scale not given here; inhibition, % (test concentration not listed); 0.17% of 300,000 active; AID 1554, 2009;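 active = replicate mean above 50%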;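 also: 50 nL library stock added to about 25 µL; numbers are from one replicate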
# * hit, by the source's call. These rows are one share of the data; count on the stated rates, not on these rows.
SMILES,BJeLR lethal
COc1ccccc1C1C=C(c2ccc(Cl)cc2)Nc2nc(NS(C)(=O)=O)nn21 (configuration not stated),-11.3
CC/C(=N\NC(C)=O)c1ccc(OC(F)F)cc1,11.4
O=S(=O)(Nc1ccc(O)c2ccccc12)c1ccc(Br)cc1,-11.6
COc1ccc(CCNC(=O)CSc2nnc(-c3ccco3)c(-c3ccco3)n2)cc1OC,-2.9
CN(C)C=Nc1ccccc1C1C=NNC1=O (configuration not stated),-10.8
CS(=O)(=O)N1c2ccccc2[C@]2([C@@]34C[C@H]5C(=O)N[C@@H](Cc6ccccc6)C(=O)N5[C@@H]3N(S(C)(=O)=O)c3ccccc34)C[C@H]3C(=O)N[C@@H](Cc4ccccc4)C(=O)N3[C@H]12,9.8
O=C(COC(=O)c1cccc([N+](=O)[O-])c1)c1ccc2c(c1)OCO2,3.8
C#CCOCCOCCOCCNc1nc(N2CCN(C(=O)[C@H]([C@@H](C)CC)n3cc([C@@H](N)CO)nn3)CC2)nc(N2CCN(C(=O)[C@H](Cc3cc4ccccc4[nH]3)n3cc([C@@H](N)Cc4ccc(O)cc4)nn3)CC2)n1,6.4
Cc1ccc(OCc2nnc(NC(=O)Cc3cccs3)s2)cc1,-1.5
C[C@@H]1C=CC(=O)O[C@@H]1c1ccc(Cl)cc1,76.6*
N#Cc1cc2c(N)c(C(=O)Nc3ccccc3)sc2nc1N,-0.6
CCCCCCC(=O)N1C/C=C\C(c2ccc(OC)cc2)N(Cc2ccc(F)cc2)C(=O)[C@H]1Cc1ccccc1 (some centres not stated),6.3
CCOC(=O)c1c(/N=C/C2C(=O)NC(=S)NC2=O)sc(C)c1C,2.5
COc1ccc(C2/C=C\CN(S(=O)(=O)/C=C/c3ccccc3)[C@H](Cc3ccccc3)C(=O)N2Cc2ccc(F)cc2)cc1 (some centres not stated),5.2
Cc1cc(C)c(C2=CC(c3ccccc3)n3ncnc3N2)cc1C (configuration not stated),-9.4
Nc1ccc(O)c(C(=O)O)c1,-21.3
Cc1ccc(N2CCN(/N=C/C3=C(N4CCOCC4)C(=C\c4ccccc4)/CC3)CC2)cc1,-0.8
CCCN1C=CC(=C/C=C(\C#N)C(=O)OCC)C=C1,-12.3
C/C=C(\C)C(=O)N1CC2(CC(c3cccc(NC(=O)CC(c4ccccc4)c4ccccc4)c3)=NO2)C[C@H]1C(N)=O (some centres not stated),1.0
O=C(O)/C(=C\C(=O)c1ccccc1)Nc1ccccc1,-7.0
O=[N+]([O-])CC(=Nc1ccc(F)cc1)N/N=C\c1oc(O)c2ccccc12,8.7
COc1ccc([C@@H]2C[C@@H](c3ccccc3)Oc3c(C)ccc(C(C)C)c32)cc1,16.1
CSc1nc(C)cc(-c2cc(C(=O)Nc3ccccc3)on2)n1,-6.6
CCOc1cc(/C=C/c2nc3ccccc3c(=O)[nH]2)cc(Br)c1OC,-3.6
CC(C)(C)C(O)/C=C/c1ccc2c(c1)OCO2 (configuration not stated),0.4
C[C@@H]1C[C@H]2OC(=O)C3(CO3)[C@H]2[C@H](O)[C@]2(C)C(=O)C3OC3[C@@H]12 (some centres not stated),72.9*
CCOC(=O)C1CCCN(c2ncnc3c2[nH]c2cccc(OC)c23)C1 (configuration not stated),7.3
CCN1CCN(Cc2c(C(=O)N/N=C(\C)c3ccc(Cl)c(Cl)c3)nnn2-c2nonc2N)CC1,7.0
Cc1nc2nc(-c3ccc(Cl)cc3)nn2c(C)c1Cl,-6.1
CCOc1cc(/C=C2\SC(=Nc3ccc(F)cc3)N(c3ccc(F)cc3)C2=O)ccc1OCC(=O)O,-1.9
COC(=O)[C@@]1(Cc2ccc(F)cc2)[C@H]2c3cc(C(=O)N(C)C)n(Cc4ccc(OC(F)(F)F)cc4)c3C[C@H]2CN1C(=O)c1ccccc1,-17.2
COC(=O)C1=C(N)n2c(s/c(=C\c3cccnc3)c2=O)=C(C(=O)OC)C1c1cccnc1 (configuration not stated),3.3
CCOc1cc(/C=C2/SC(=S)N(C)C2=O)ccc1Oc1ccc([N+](=O)[O-])cc1[N+](=O)[O-],0.5
CCO[C@@H]1OC(C(=O)N2CCN(C)CC2)=C[C@H](C(C)(C)C)[C@H]1CCCO,7.6
O=C(N/N=C/c1ccc([N+](=O)[O-])cc1)c1cnccn1,-2.6
O=C(OCc1cc(Cl)ccc1OC(F)F)c1ccc([N+](=O)[O-])o1,3.0

# Not a retest: entries from further up.
SMILES,BJeLR lethal
COC(=O)[C@@]1(Cc2ccc(F)cc2)[C@H]2c3cc(C(=O)N(C)C)n(Cc4ccc(OC(F)(F)F)cc4)c3C[C@H]2CN1C(=O)c1ccccc1,-17.2
COC(=O)C1=C(N)n2c(s/c(=C\c3cccnc3)c2=O)=C(C(=O)OC)C1c1cccnc1 (configuration not stated),3.3
CCOc1cc(/C=C2/SC(=S)N(C)C2=O)ccc1Oc1ccc([N+](=O)[O-])cc1[N+](=O)[O-],0.5
CCO[C@@H]1OC(C(=O)N2CCN(C)CC2)=C[C@H](C(C)(C)C)[C@H]1CCCO,7.6
O=C(N/N=C/c1ccc([N+](=O)[O-])cc1)c1cnccn1,-2.6
O=C(OCc1cc(Cl)ccc1OC(F)F)c1ccc([N+](=O)[O-])o1,3.0

# The list continues:
SMILES,BJeLR lethal
O=C(/C(N=Nc1cccc([N+](=O)[O-])c1)=C(/O)c1ccc(Br)cc1)C(F)(F)F,19.1
COc1ccc(CN2C(=O)C(Cc3ccccc3)Nc3ncnc(N4CCc5ccccc5C4)c32)cc1 (configuration not stated),-5.3
CS(=O)(=O)Nc1ccc(Cc2noc(-c3ccc4[nH]cc(CCN)c4c3)n2)cc1,-0.8
C/C=C/C(O)c1ccc2ccccc2c1 (configuration not stated),-0.8
N#Cc1nc(-c2ccc(F)cc2)oc1NCCCn1ccnc1,2.0
O=C(c1n[nH]c2c1CCCC2)n1ccnc1,0.1
C(=N\Nc1nc(-c2ccccn2)nc2ccccc12)/c1ccccc1,1.9
C#CCOCCOCCOCCNc1nc(N2CCN(C(=O)Cn3cc(CC(C)O)nn3)CC2)nc(N2CCN(C(=O)[C@H](C)n3cc(CCCN=C(N)N)nn3)CC2)n1 (some centres not stated),5.0
O=C(Cc1ccccc1)N[C@@H](Cc1ccc(O)cc1)C(=O)O,4.5
O=C(NCc1ccccc1Cl)C1CCCN(c2nc3ccsc3c(=O)s2)C1 (configuration not stated),3.6
COC(=O)CCCC1=CC2=CC(=O)C(C)(OC(=O)c3ccco3)C(=O)C2=CO1 (configuration not stated),1.0
Cc1cccc(C(=O)O/N=C/c2c(N3CCOCC3)n(C)c3ccccc23)c1,-0.1
Cc1nn(Cc2ccc(Cl)cc2Cl)c(Cl)c1/C=N/NC(=O)CNc1cccc(C(F)(F)F)c1,-11.0
C/C(=N\Nc1ccc(F)cc1F)c1ccc(F)cc1,14.2
COc1ccc(NCc2ccc(OC)c(OC)c2)cc1,-6.2
N#C[C@@H]1[C@@H]2C(=O)N(c3ccc4c(c3)OCCO4)C(=O)[C@@H]2C2c3ccccc3C=CN21 (some centres not stated),-6.5
CSc1nc(NCCCN(C)C)c2c3c(sc2n1)CN(C)CC3,-1.8
Cc1cc(C)nc(/N=C(/NC(=O)Nc2ccc(Cl)c(Cl)c2)Nc2ccccc2)n1,0.1
CCOC(=O)N1C2=NC(C(=O)OC)=C(C(=O)OC)[C@@H]3N(Cc4ccccc4)c4ccccc4[C@]23C[C@H]1C(=O)OC,0.9
COC(=O)N1C(=O)[C@@](CC(C)C)(c2ccccc2)N1C(=O)OC,-7.2
O=C(N/N=C/c1ccco1)c1cc(C2CC2)nc2ccccc12,-3.0
COc1cc(/C=N/NC(=O)c2cc(-c3ccccc3C)nc3ccccc23)cc(OC)c1O,-1.8
C#CCOCCOCCOCCNc1nc(N2CCN(C(=O)[C@H]([C@@H](C)CC)n3cc([C@@H](N)CC(C)C)nn3)CC2)nc(N2CCN(C(=O)[C@H](Cc3cc4ccccc4[nH]3)n3cc([C@@H](N)CC(C)C)nn3)CC2)n1,6.2
O=C(/C=C/c1ccccc1[N+](=O)[O-])Oc1ccccc1,-2.8
COC/C=C/C1=CC2=CC(=O)C(C)(OC(=O)c3cccs3)C(=O)C2=CO1 (configuration not stated),5.0
CN(C)c1ccc(/C=C/C(O)=C2/C(=O)N(C)C3(C)CC2c2ccccc2O3)cc1 (configuration not stated),-11.2
COC/C=C/C1=CC2=CC(=O)C(C)(OC(=O)c3cnc4ccccc4n3)C(=O)C2=CN1CCc1ccccn1 (configuration not stated),8.2
CC12C(=O)N(c3ccc(C(=O)N4CCOCC4)cc3)C(=O)C1C1c3ccccc3C2c2ccccc21 (configuration not stated),-3.6
COc1ccc(O[C@H]2C=C[C@@H](c3ccccc3)O[C@@H]2COC(=O)CC/C(C)=N/O[C@H](C)c2cn([C@@H]3COC[C@H]3O)nn2)cc1,6.6
CCS(=O)(=O)C1=NN2C(=N)/C(=C\c3ccc(OS(=O)(=O)c4ccccc4)c(OC)c3)C(=O)N=C2S1,12.0
O=C(N=Nc1ccc(NOC(=O)c2ccccc2Br)cc1)c1ccccc1O,-0.9
Cc1nc(NC(=O)c2ccccc2)sc1-c1csc(Nc2ccc(Cl)cc2)n1,17.6
O=C1N[C@@H](Cc2ccccc2)C(=O)N2[C@@H]1C[C@]1(Br)c3ccccc3N(S(=O)(=O)c3ccccc3)[C@H]21,-0.2
CN(C)CC/C=C1/c2ccccc2COc2ccccc21,3.6
COC(=O)c1[nH]c2ccc(C)cc2c1NC(=O)CCN1CCN(C2CCCCC2)CC1,1.8
CSc1ccc(C2c3[nH]c4ccccc4c3CCN2C(=O)c2cc(C)n(C)n2)cc1 (configuration not stated),7.9

# Some of the entries so far, with tabs.
SMILES	BJeLR lethal
Cc1nc(NC(=O)c2ccccc2)sc1-c1csc(Nc2ccc(Cl)cc2)n1	17.6
CS(=O)(=O)N1c2ccccc2[C@]2([C@@]34C[C@H]5C(=O)N[C@@H](Cc6ccccc6)C(=O)N5[C@@H]3N(S(C)(=O)=O)c3ccccc34)C[C@H]3C(=O)N[C@@H](Cc4ccccc4)C(=O)N3[C@H]12	9.8
CCS(=O)(=O)C1=NN2C(=N)/C(=C\c3ccc(OS(=O)(=O)c4ccccc4)c(OC)c3)C(=O)N=C2S1	12.0
CSc1nc(C)cc(-c2cc(C(=O)Nc3ccccc3)on2)n1	-6.6
N#Cc1nc(-c2ccc(F)cc2)oc1NCCCn1ccnc1	2.0
C#CCOCCOCCOCCNc1nc(N2CCN(C(=O)[C@H]([C@@H](C)CC)n3cc([C@@H](N)CO)nn3)CC2)nc(N2CCN(C(=O)[C@H](Cc3cc4ccccc4[nH]3)n3cc([C@@H](N)Cc4ccc(O)cc4)nn3)CC2)n1	6.4

# Next entries:
SMILES,BJeLR lethal
O=C(O)C1C2CCC(O2)C1C(=O)Nc1cccc(F)c1 (configuration not stated),-0.9
CCOC(=O)Cc1csc(NC(=O)c2ccc(Br)s2)n1,11.1
Fc1ccc(N2CCN(Cc3c[nH]c4ccccc34)CC2)cc1,7.8
Cc1cc(C(=O)OCC(=O)c2ccc(Br)s2)c(C)o1,0.9
CO[C@H]1C=CO[C@@]2(C)Oc3c(C)c(O)c4c(O)c(c5c(nc6cc(C)ccn65)c4c3C2=O)NC(=O)C(C)=CC=C[C@H](C)[C@H](O)[C@@H](C)[C@@H](O)[C@@H](C)[C@H](OC(C)=O)[C@@H]1C,4.2
Cc1ccccc1Nc1nc(-c2sc(NC(=O)c3ccccc3)nc2C)cs1,9.1
CCOc1ccc(N/C(=C(/C(Cl)=C(Cl)Cl)[N+](=O)[O-])n2cncn2)cc1,-3.1
CCCCNC(=O)C(c1ccc(OCC(=O)OC)c(C(=O)OC)c1)N(CCOC)C(=O)CCCCCN1C(=O)NC(c2ccc(-c3ccccc3)cc2)C(C(=O)OCc2ccccc2)=C1C (configuration not stated),8.1
CC1=NNC(=O)C1CCC(=O)N/N=C/c1ccc(C)cc1 (configuration not stated),7.7
C=CCn1c2ccccc2c(=O)c2cc(C#Cc3ccsc3)ccc21,-4.6
CCC1=C(OC(=O)N(CC)CC)N2C(=O)OC(=NCC3CC3)[C@]2(Cc2ccccc2)[C@H]2C1=CC[C@H]1C(=O)N(CC(=O)OC)C(=O)[C@H]12,-3.4
Cc1ccc(CNC(=O)c2cn(C3CCCC3)c(=O)c3c2c2ccccc2n3C)o1,-4.9
Cc1ccc(C)n1-c1ccc2c(c1)COC2=O,-3.9
COc1ccccc1N1CCN(C/C=C/c2ccc(N(C)C)cc2)CC1,-3.6
C=CCOc1c(Cl)cc(CNc2ccc(C)c(Cl)c2)cc1OC,34.9
Cc1nc(NC(=O)c2ccccc2)sc1-c1csc(Nc2ccc(Cl)cc2Cl)n1,19.3
CCN(CC)CCCN1C(=O)c2oc3ccccc3c(=O)c2C1c1cccs1 (configuration not stated),2.0
O=C(O)c1ccccc1NC(=O)C1C2CCC(O2)C1C(=O)O (configuration not stated),3.8
CC(C)OC(=O)c1c2nc3ccccc3nc2n2c1[nH]c(=O)c1ccccc12,-4.3
CCOc1ccc(-c2cc(C(=O)NN3CCN(C)CC3)c3cc(Cl)ccc3n2)cc1,-5.1
O=C(C(=O)N1CCc2ccccc2C1)N1CCc2ccccc2C1,-8.2
C=CCN1c2ccccc2[C@]23C[C@@H](C(=O)OC)N(C(=O)c4cc(C)oc4C)C2=NC(C(=O)OC)=C(C(=O)OC)[C@H]13,-13.7
COc1ccc(Br)cc1/C=N/NC(=O)c1cc(Br)ccc1O,-1.8
CC(=O)Nc1cn(C(C)=O)c(C)n1,4.7
Cc1c(Cl)cccc1NC(=S)N/N=C/c1ccccc1Cl,-0.3
COC(=O)[C@@H](NC(=O)O[C@@H]1C(=O)c2ccc(OC)cc2O[C@H]1c1cccc(C(F)(F)F)c1)C(C)C,-9.1
O=C(O/N=C/c1ccc2c(c1)OCO2)c1ccccc1Cl,-0.9
CCN(CC)CCCNc1nc(SC)nc2sc3c(c12)CCN(C)C3,-0.6
Cc1ccc(C)n1CCN1CCN(CC(=O)Nc2cc(C(F)(F)F)ccc2Cl)CC1,3.1
CCCOc1ccc(-c2c(C(=O)N/N=C/c3ccc(C)cc3)nnn2-c2nonc2N)cc1,-2.0
Cc1cnc(SCCc2ccncc2)nc1C,-3.3
O=C1NC(=O)N(Cc2ccccc2)C(=O)/C1=C/c1cnn(-c2ccccc2)c1,-7.7
CCOCCn1c(=NC(=O)c2cc(Cl)sc2Cl)sc2cc(S(N)(=O)=O)ccc21,0.7
COc1ccc(/C=C2/C(=O)NC(=O)N(Cc3ccco3)C2=O)cc1,5.0
